From PubChem BioAssay
Bfl-1 A1 inh – inhibitors of the anti-apoptotic protein A1, read as caspase activation. MEF A1-2A-BIM cells, Caspase-Glo 3/7 luminescence, 3 h; percent of clofoctol response, vehicle zero. 330,000 tested, 0.066% active. caspase activation, % (test concentration not listed);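 active = over half of replicate activation scores above 10%, or exactly half above 10 with the replicate mean above 10; inconclusive = replicate mean below 10 yet half the replicates above 10; inactive = over half of replicates below 10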;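 note: wells of about 30 µL received 50 nL stock; many hits fall short of the cut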
LANA-H2A inh – blocks KSHV LANA binding to histone H2A/H2B; 320,000 tested, 0.6% active; inhibition, % (no concentration beside the values); cell-free LANA-H2A/H2B peptide, fluorescence polarization; Q9QR71; AID 2629; in the data active = inhibition mostly above about 10%, no sharp cut-off; inactive = mostly below about 6.7%;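 note: stock transfer was 7.5 nL into about 10 µL; 0% = median of vehicle wells and 100% = median of positive control wells; one replicate is shown; the record names a cut of 25% in any replicate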
Vif TR-FRET – inhibitors of Vif binding to APOBEC3G peptide, primary screen, biochemical, TR-FRET, GST-Vif 1-94, biotin-A3G peptide, dose response retest (AID 1117319). TR-FRET GST-Vif / biotin-A3G peptide binding; higher % means a stronger effect; test concentration not given here; strong numbers were not always called active. inhibition, %; hits with a dose series show IC50 in µM. 260,000 tested, 0.57% active;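 active = above the screen mean plus three standard deviations and confirmed in dose response; inconclusive = results disagree or hit not tested in dose response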;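 note: Vif residues 1-94 fused to GST binding biotinylated APOBEC3G peptide 110-148; 0% = full assay without inhibitor and 100% = GST in place of GST-Vif; retest series ran down from 100 µM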
B2AR ag – human beta-2 adrenergic receptor agonism by FAP | AID 504454 | Am2.2-beta2AR cells, FAP receptor internalization, flow cytometry; reference of the scale not given here | 340,000 tested, 0.43% active | P07550 | response, % (no concentration beside the values);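 active = response above a set limit, near 3 SD of response in nonfluorescent compounds, cut at about 42% in these data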;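 note: stock transfer was 100 nL into about 11 µL; a reference agonist was the positive control; negative values mostly stem from fluorescent compounds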
Target sequence (P07550 whole entry, looked up): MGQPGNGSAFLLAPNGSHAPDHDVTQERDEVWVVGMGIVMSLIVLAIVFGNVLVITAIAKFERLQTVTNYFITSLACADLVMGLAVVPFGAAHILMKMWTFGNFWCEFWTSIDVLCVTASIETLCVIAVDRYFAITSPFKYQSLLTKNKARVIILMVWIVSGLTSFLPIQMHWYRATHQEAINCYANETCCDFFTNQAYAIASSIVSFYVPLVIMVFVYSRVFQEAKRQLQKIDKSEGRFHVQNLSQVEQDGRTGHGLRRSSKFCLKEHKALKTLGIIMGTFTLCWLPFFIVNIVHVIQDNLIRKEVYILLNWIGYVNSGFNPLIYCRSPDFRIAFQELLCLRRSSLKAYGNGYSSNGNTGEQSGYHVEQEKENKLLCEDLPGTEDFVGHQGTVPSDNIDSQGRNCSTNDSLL
E coli growth – blocks Escherichia coli growth; OD600, 23 h; active compounds read low; OD600 absorbance (no concentration beside the values); 330,000 tested, 0.21% active; AID 1053175;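 active = OD600 absorbance below the run mean of sample wells minus 3.6 SD, in any replicate, cut at about 0.56 in these data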;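 note: stock transfer was 300 nL into about 60 µL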
UCH37 inh – blocks the human deubiquitinase UCH37; purified proteasome/UCH37, Ub-AMC cleavage fluorescence; inhibition, % (test concentration not listed); 330,000 tested, 0.33% active; AID 588478;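 active = mean of two replicates above 20%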;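 note: 0% = compound-free wells with enzyme and 100% = wells lacking proteasome; stock transfer was 100 nL into about 20 µL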
Target sequence (Q9Y5K5 whole entry, looked up): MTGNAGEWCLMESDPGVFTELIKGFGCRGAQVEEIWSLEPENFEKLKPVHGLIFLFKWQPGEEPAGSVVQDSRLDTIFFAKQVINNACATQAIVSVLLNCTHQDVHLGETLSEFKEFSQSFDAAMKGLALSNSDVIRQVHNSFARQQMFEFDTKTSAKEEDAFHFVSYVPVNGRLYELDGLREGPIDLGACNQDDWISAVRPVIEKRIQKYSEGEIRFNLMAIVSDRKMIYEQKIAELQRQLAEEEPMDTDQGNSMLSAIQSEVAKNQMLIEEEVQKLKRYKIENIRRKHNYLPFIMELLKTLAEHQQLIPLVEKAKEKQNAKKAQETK
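System: Proteasome-associated human UCH37 deubiquitinase; Input: 0.15 nM proteasome in added enzyme buffer; Also added: Ub-AMC substrate from 1 µM stock; Incubation: 30 min compound-proteasome preincubation then 25 min substrate reaction, room temperature; Detection: fluorescence, ex 355 nm, em 460 nm; Read-out: % inhibition of Ub-AMC cleavage fluorescence; Benchmarks: no-proteasome and no-compound wells.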
HNF4A DNA FP – change in binding of human HNF4 alpha to DNA; P41235; HNF4a-FITC DNA binding, fluorescence polarization, 1 h; activity change, % at 10 µM; 360,000 tested, 0.3% active; in the data active = activity change above about 30%, passing the limit was not always enough;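 note: controls were the assay level and a saturating level of protein; the project sought stronger binding though the title names inhibitors; some compounds called inactive have numbers as strong as hits; positive values seem to mean higher polarization but the record does not say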
An asterisk follows results filed as active; ? = inconclusive; . = no result given.

SMILES	Bfl-1 A1 inh	LANA-H2A inh	Vif TR-FRET	B2AR ag	E coli growth	UCH37 inh	HNF4A DNA FP
O=C(OCC(=O)N1CCCC1)c1ccc(OC(F)(F)F)cc1	-0.3	1.3	1.7%	7.0	0.656	0.2	-1.5
O=C(C/C=N/OCc1c(Cl)cccc1Cl)c1cnc(-c2ccccc2)s1	0.3	-1.9	22.7%	-3.5	.	.	3.2
CCN(CC(=O)Nc1ccccc1OC)C(=O)CSCC(=O)Nc1ccc(OC)cc1	-0.5	1.4	1.3%	3.3	0.598	0.0	1.2
COc1ccc(CCN2C(=S)N(C)C(=O)C2CC(=O)Nc2ccc(OC)cc2)cc1 (stereo unspecified)	0.2	2.0	0.8%	-3.3	0.684	-1.6	3.1
COc1cccc(-c2sc3ccc(OC)cc3c2C#CC(C)(C)O)c1	-1.3	-4.9	.	9.6	0.718	1.3	-2.2
O=C(NC1CCCCCC1)c1ccc(CN2CCOCC2)cc1	-0.8	-2.5	-6.9%	4.5	0.743	-1.2	0.1
CCCCOC(=O)C1CN(c2ccccc2)N=C1C(=O)OCC (stereo unspecified)	0.0	1.4	-7.7%	0.2	0.678	-202.4	0.1
Cc1oncc1C(=O)N1CCCC(CO)(Cc2ccc(F)cc2F)C1 (stereo unspecified)	-0.3	-2.1	.	0.3	0.698	-1.3	0.1
CS(=O)(=O)c1ccc2nc(NC(=O)c3cc4ccccc4o3)sc2c1	-3.0	-2.8	-16.6%	8.5	0.753	-17.4	0.8
Cc1cc(NC(=O)COC(=O)c2oc3c(Cl)cccc3c2C)no1	-0.3	2.2	4.9%	17.1	0.703	3.3	3.8
COc1ccc2cc(CCNC(=O)c3ccc(S(=O)(=O)N4CCCC4)cc3)c(=O)[nH]c2c1	0.0	-1.5	.	-1.8	0.701	5.4	3.0
CCOc1ccc(CCNC(=O)c2cc3c(C)nccc3[nH]c2=O)cc1OCC	0.5	3.6	-11.3%	17.3	0.686	4.2	-2.3
COCC(C)N1CCC(n2nccc2NC(=O)c2ccc3c(c2)OCO3)CC1 (stereo unspecified)	0.2	1.5	.	6.0	0.697	3.0	7.8
CCN1CCN(c2cc(C)c3cc(NC(=O)Cc4ccccc4OC)ccc3n2)CC1	-0.5	0.9	0.3%	-3.0	0.664	-41.9	4.5
COc1ccc(NS(=O)(=O)c2cccc(C(=O)N/N=C/c3cn(-c4ccccc4)nc3-c3ccccc3)c2)cc1	0.1	-1.8	11.5%	-10.0	.	.	-0.8
O=C(CSc1nnnn1Cc1ccccc1)NCCc1ccccc1	1.5	2.8	-0.2%	-12.5	0.729	-0.3	2.8
O=C(c1ccccc1Br)N1CCN(c2ccccc2)CC1	0.6	0.2	38.7µM*	-1.8	0.719	1.4	2.1
COc1ccc(N2CC(C)Cn3c2nc2c3c(=O)n(Cc3ccc(C)cc3)c(=O)n2C)c(OC)c1 (stereo unspecified)	-0.8	1.5	-5.2%	11.2	0.699	1.7	3.9
Cc1cc(C)cc(OCC(=O)O/N=C(\N)c2ccccc2Cl)c1	-0.3	-0.9	-10.9%	4.2	0.658	5.0	4.2
CCN(CC)C(=O)c1cc2cc(Br)ccc2oc1=O	0.8	-1.0	-0.9%	-5.6	0.737	2.8	-2.0
COC(=O)c1cccc(-n2[nH]nnc2=S)c1	0.0	-3.1	-1.0%	3.8	0.706	1.2	1.2
Cc1cccc(-n2c(O)c(C=NCc3ccccn3)c3ccccc3c2=O)c1	-1.1	-1.2	0.6%	3.0	0.67	6.4	4.5
COc1ccc(C2CCCN2C(=O)Nc2ccc(F)cc2)cc1OC (stereo unspecified)	-0.3	-3.5	2.3%	11.1	0.7	1.5	-3.6
Cc1cc(NC(=O)CCc2ccc(S(=O)(=O)N3CCOCC3)cc2)n(-c2ccccc2)n1	1.4	0.2	17.1%	-6.8	0.723	1.7	3.3
CN1C(=O)CSC1=Nc1ccc(F)cc1	1.6	3.4	0.5%	1.7	0.614	2.7	-0.3
COc1ccc(-n2c(=S)[nH]c3cc(C(=O)N4CCN(c5ccccc5)CC4)ccc3c2=O)cc1	0.6	-5.1	.	5.4	0.676	3.2	-3.1
CN(c1ccccc1)S(=O)(=O)c1cccc(NC(=O)CSc2ncc(C(F)(F)F)cc2Cl)c1	1.3	-1.7	10.3%	1.2	0.69	2.9	2.1
Cc1ccc(NC(=O)CN(C)C(=O)CSc2nccn2C)cc1	1.2	-0.9	-0.9%	0.1	0.7	1.0	1.4
CN(C)c1ccc(NC(=O)C[n+]2ccccc2)cc1	0.8	-1.1	-4.5%	3.2	0.692	0.5	0.1
CCC(C)[C@@H](C(=O)N1CCNCC1)n1cc(CCCCN)nn1 (stereo partly specified)	-0.2	2.9	-0.5%	3.1	.	2.1	-1.9
CCc1ccc2c(c1)c1nnc(NN)nc1n2CC	0.2	3.1	9.0%	4.9	0.69	13.8	0.7
Cc1ccc(-n2c(-c3ccncc3)n[nH]c2=S)cc1	0.5	-1.3	?	2.3	0.656	1.6	-1.4
N#Cc1ccc(Oc2cccnc2)cc1C#N	-0.2	-2.3	0.4%	-12.0	0.704	0.8	2.0
Cc1ccc(N=CC2=C(O)CC(c3ccco3)CC2=O)cc1 (stereo unspecified)	0.4	-0.4	14.7%	-4.0	0.64	1.0	2.9
COc1cc(C2C(C(=O)c3ccco3)=C(O)C(=O)N2c2cc(C)on2)cc(Br)c1O (stereo unspecified)	1.3	3.3	26.5µM*	1.1	0.719	11.5	-0.1
COc1ccc(-c2nnc(-c3ccccc3)o2)cc1OC	-7.9	3.3	27.1%	-2.0	0.657	-27.6	-1.9
CCCCCCC(=O)NNC(=O)c1c(O)c2ccccc2n(CC)c1=O	2.8	-5.8	-1.2%	9.8	0.638	-3.7	3.0
CC(C)(C)c1ccc(C(CC(=O)O)NC(=O)Cc2ccc(F)cc2)cc1 (stereo unspecified)	0.8	-4.8	25.4%	.	0.632	-2.0	.
CCc1ccc(N2C(=O)c3sc4nnc(C)c(=O)n4c3C2=O)cc1	-6.2	-5.1	30.6%	-10.5	0.703	6.4	1.2
Nc1cccc(S(=O)(=O)c2cccc(N)c2)c1	0.6	4.2	-2.4%	0.7	0.692	0.3	4.5
CSc1cccc(NC(=O)Nc2ccc(Cl)cc2)c1	1.0	1.3	2.5%	2.6	0.683	2.9	1.7
O=C(CSc1ncnc2ccccc12)NC1CCS(=O)(=O)C1 (stereo unspecified)	0.2	-5.1	.	12.1	0.708	2.9	0.3
CCCCC1(C)NC(=O)N(CC(=O)Nc2cc(S(=O)(=O)N3CCOCC3)ccc2Cl)C1=O (stereo unspecified)	0.7	-0.2	15.8%	1.2	0.646	2.3	-0.9
CCSc1nc(C2CC2)cc(-c2ccco2)c1C#N	0.7	-2.3	15.5%	1.3	0.784	1.1	7.0
Cc1cc(C)c2c(C)c(C(=O)NCc3ccc(S(N)(=O)=O)cc3)oc2c1	-0.9	0.7	-26.2%	-1.5	0.682	2.2	-1.6
CN(C)CCCNc1c2c(nc3ccccc13)CCC2	-0.9	3.6	0.5%	-3.3	0.666	2.8	5.1
CCOc1ccccc1NC(=O)N1CCC(c2nc3ccccc3[nH]2)CC1	-1.0	-2.0	-6.9%	-7.5	0.664	0.7	-1.9
COCCN(C(=O)c1ccc(C)c(S(=O)(=O)N2CCOCC2)c1)c1c(N)n(CC(C)C)c(=O)[nH]c1=O	.	.	.	-0.8	0.709	-4.7	-2.8
COc1cc(/C=C2\SC(=S)N(Nc3ccccc3)C2=O)ccc1O	-2.0	2.5	21.6%	-10.9	0.687	7.2	36.6*
CCc1ccc(NC(=S)N(Cc2ccccc2)Cc2ccccn2)cc1	0.8	-9.1	-7.3%	-8.9	0.739	5.5	-3.4

The results go on:
SMILES	Bfl-1 A1 inh	LANA-H2A inh	Vif TR-FRET	B2AR ag	E coli growth	UCH37 inh	HNF4A DNA FP
Cc1cc(C)c2nc(Nc3nc(-c4ccccc4)cc(=O)[nH]3)nc(C)c2c1	-0.1	-3.0	-8.0%	11.4	0.664	1.1	3.6
CCN1C(=O)[C@@H]2[C@@H](c3ccc(-c4ccc(F)cc4)cc3)N3CCC[C@@]3(C(=O)OC)[C@@H]2C1=O	0.5	-3.0	.	-3.9	.	1.7	0.5
CN1CCN(C(=O)CCNC(=O)Cn2cnc3ccccc3c2=O)CC1	0.1	8.3	.	1.1	0.663	4.0	-0.5
Cc1ccc(C)c(Cn2c(=O)n(C)c(=O)c3sccc32)c1	0.0	3.7	-6.1%	-2.6	0.634	2.3	1.9
Nc1nc(Nc2ccccc2)nc2c1ncn2[C@@H]1O[C@H](CO)[C@@H](O)[C@H]1O	0.6	-4.8	.	5.8	.	-0.2	-2.8
O=C(Nc1ccnn1C1CCN(C/C=C/c2ccc(F)cc2)CC1)C1CCCC1	-1.0	4.1	.	.	0.685	3.4	-1.7
C1CCC(n2nnnc2CN2CCCC2)CC1	2.0	4.7	4.3%	-6.4	0.672	3.3	4.5
COc1cc(/C=C(\C#N)C(=O)NCCc2ccccc2)cc(OC)c1O	-0.2	-4.7	-3.6%	-29.7	0.66	4.6	9.1
CCC(=O)N1c2ccccc2NC2=C(C(=O)CCC2)C1c1ccccc1 (stereo unspecified)	0.8	0.8	-1.4%	0.4	0.687	4.2	-0.1
CC1(C)CC(=O)C(C=Nc2cc(C(=O)c3ccccc3)ccc2N)=C(O)C1	0.9	-2.1	18.7%	-11.4	0.672	5.9	31.1
C[C@H](CO)N1C[C@H](C)[C@@H](CN(C)C(=O)Nc2ccccc2)Oc2ccc(NC(=O)Nc3ccc(C(F)(F)F)cc3)cc2C1=O	0.1	2.4	.	-5.9	.	1.7	-1.0
CC(C)Cc1nnc(NC(=O)CCC(=O)N2CCN(C3CCCC3)CC2)s1	-0.9	1.8	.	1.6	0.688	4.9	1.2
Cc1cccc(N2CCN(Cc3nc(C4CC4)no3)CC2)n1	-1.3	1.4	14.2%	-1.6	0.704	0.1	-0.5
Cc1ccc(Cn2c(N)c(S(=O)(=O)c3cccs3)c3nc4ccccc4nc32)cc1	0.1	-3.3	11.8%	52.2*	0.68	-205.7	9.7
COc1ccc2[nH]c(C(=O)Nc3cccc(C)n3)cc2c1	-11.3	3.1	-5.5%	7.3	0.626	-43.2	6.3
Cc1c(NC(=S)N/C(=N/S(=O)(=O)c2ccc(Cl)cc2)c2ccccc2)c(=O)n(-c2ccccc2)n1C	0.3	-1.0	.	-2.5	0.696	-0.2	0.8
O=C(OCC(=O)N1CCN(S(=O)(=O)c2ccccc2)CC1)C1CCC1	-0.6	5.0	.	12.9	0.71	0.7	0.5
COc1ccc2[nH]c3c(c2c1)CCNC3(C)CCc1ccc(Cl)nc1 (stereo unspecified)	0.1	-1.1	-1.6%	-4.5	0.673	2.7	2.0
CCc1ccc(NC(=O)C2(c3ccccc3)CC2(Cl)Cl)cc1 (stereo unspecified)	-0.7	-8.7	-2.4%	15.1	0.626	2.3	2.1
O=C(COc1ccc2c3c(c(=O)oc2c1)CCC3)NC1CCN(Cc2ccccc2)CC1	-0.8	0.7	.	-3.7	0.67	-6.1	-2.9
CCN(CC(=O)NCc1ccc(F)cc1)Cc1cc(=O)n2ccsc2n1	0.3	0.8	0.2%	-0.9	0.664	-12.3	-1.6
COC(=O)c1[nH]c2cc(C)ccc2c1NC(=O)CN1CCN(c2ccccc2OC)CC1	0.0	-3.1	3.8%	15.2	0.727	0.1	2.4
Cc1ccc(-c2c(C(=O)N/N=C/c3cccc(Cl)c3)nnn2-c2nonc2N)cc1	-0.2	5.8	30.5%	1.6	.	.	-1.1
